Screening data: PubChem BioAssay, National Center for Advancing Translational Sciences (NCATS)
Cruzain inh Det: inhibitors of Trypanosoma cruzi cruzain with detergent | P25779 | purified cruzain, Z-FR-AMC fluorescence, 0.01% Triton | Potency, µM, without a hit: max response, negative = inhibition, hits mostly inhibitors | hit rate 0.43% among 200,000 | AID 1478; active = well fitted curve in the direction sought with a large enough effect; inconclusive = small, poorly fitted or top-dose-only effect, or another doubt; inactive = no such curve, though single readings can be large; an effect the other way counts as inactive or inconclusive;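 note: plate controls were neutral wells for no effect and buffer without enzyme for full effect; nearly all actives have a fitted effect of over 40% in size; top concentration of the series not given in the record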
Target sequence (P25779 123-467 limits assumed): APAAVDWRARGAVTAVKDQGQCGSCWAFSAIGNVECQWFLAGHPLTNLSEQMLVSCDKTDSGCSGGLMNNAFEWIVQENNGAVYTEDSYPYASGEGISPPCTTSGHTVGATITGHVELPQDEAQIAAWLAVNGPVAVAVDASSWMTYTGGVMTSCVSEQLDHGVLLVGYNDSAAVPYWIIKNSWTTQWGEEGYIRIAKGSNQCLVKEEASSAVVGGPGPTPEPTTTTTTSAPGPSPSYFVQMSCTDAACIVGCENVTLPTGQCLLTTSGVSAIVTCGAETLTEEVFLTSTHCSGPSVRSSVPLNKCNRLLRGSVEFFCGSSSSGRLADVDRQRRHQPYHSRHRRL
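Cruzain (1.5 nM) preincubated 15 min at RT with compound in 100 mM sodium acetate pH 5.5, 5 mM DTT, 0.01% Triton X-100. Reaction started with 2 uM Z-FR-AMC; AMC fluorescence (ex 360/em 450 nm) change over 60 s gave rate.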
RE007 growth inh: less growth of the S. pombe RE007 Vpr strain. Potency, µM (titrated, usually from 92.2 µM), for the others: at the highest dose activity change, negative = less growth. S. pombe RE007 Vpr strain, BacTiter-Glo ATP luminescence, 24 h; control for the full effect not named in the record. AID 651644. hit rate 0.21% among 360,000; active = well fitted falling curve with a large enough effect; inconclusive = small, poorly fitted or top-dose-only effect; inactive = no such curve, though single readings can be large or run the other way;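 note: % is set by controls: 0 for no effect and ±100 for the full control effect; nearly all actives have a fitted effect of over 50% in size; the assay follows cell death caused by Vpr and the record does not say whether a fall means rescue or toxicity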
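Fission yeast RE007 carrying one integrated HIV-1 vpr copy, seeded at OD 0.01 in PMG+AL medium with 23 nL pinned compound. Grown 24 h at 30 degrees; viability read by BacTiter-Glo luminescence after 5 min.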
LASV entry inh: Lassa virus entry inhibition. Potency, µM (series often up to 37.9 µM), for inactives: at the highest dose activity change, negative = inhibition, hits mostly inhibitors. AID 540256. Lassa virus pseudotype entry inhibition, cell reporter; control for the full effect not named in the record. hit rate 1.2% among 300,000; active means well fitted inhibition curve with a large enough effect; inconclusive means small, poorly fitted or top-dose-only effect, or effect the other way; inactive means flat fitted curve, though single readings scatter; tested in HEK293 cells; note: % is set by controls: 0 for no effect and ±100 for the full control effect; nearly all actives have a fitted effect of over 50% in size; luciferase read-out
NS1 inh: inhibitors of influenza NS1 protein function. S. cerevisiae slowed by influenza A NS1, growth recovery by OD600. Potency, µM (doses to about 46.1 µM), inactives show at the top dose activity, positive = more growth. hit rate 0.4% among 270,000. AID 2326; note: actives are rising curves; nearly all actives have a fitted effect of over 50% in size
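Growth recovery, yeast-based: influenza A NS1 expressed in S. cerevisiae causes slow growth, and suppressors are detected by OD600. The parent strain without NS1 is used as positive control.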
SARS PLP yeast: blocks SARS-CoV papain-like protease in a yeast assay; S. cerevisiae expressing SARS-CoV PLpro, growth rescue; control for the full effect not named in the record; Potency, µM (highest dose often 32.9 µM), inactives show top-dose activity, positive = growth rescue; hit rate 0.19% among 330,000; note: 0% is about no effect; nearly all actives have a fitted effect of over 55% in size; growth read by luminescence after 48 h
2A StopGo: FMDV 2A StopGo reporter, luciferase signal | human cells with a luciferase reporter of 2A StopGo recoding; control for the full effect not named in the record | Potency, µM (doses to about 57.9 µM), inactives show at the top dose signal change, negative = less light | hit rate 1.2% among 410,000 | AID 1159524; active = well fitted falling curve with a large enough effect; inconclusive = small, poorly fitted or top-dose-only effect; inactive = no such curve, though single readings can be large or run the other way; tested in HEK293T cells; note: % is set by controls: 0 for no effect and ±100 for the full control effect; nearly all actives have a fitted effect of over 45% in size; luciferase light after 4 h
MARV entry inh: blocks Marburg virus binding to or entry into cells | Marburg virus pseudotyped entry inhibition, cell reporter; control for the full effect not named in the record; about a third of the inactives were read at about 46 µM | Potency, µM (titrated, usually from 37.8 µM), for the others: at the highest dose activity change, negative = inhibition, usual class: inhibitors | hit rate 1.8% among 300,000 | AID 540276; active = well fitted inhibition curve with a large enough effect; inconclusive = small, poorly fitted or top-dose-only effect, or effect the other way; inactive = flat fitted curve, though single readings scatter; tested in HEK293 cells; about a fifth of its hits are not listed in these tables; note: % is set by controls: 0 for no effect and ±100 for the full control effect; luciferase read-out
Cruzain inh noDet: inhibitors of Trypanosoma cruzi cruzain without detergent | P25779 | purified cruzain, Z-FR-AMC fluorescence, no detergent | Potency, µM, without a hit: max response, negative = inhibition, actives largely listed as inhibitors | hit rate 2.3% among 200,000; active = well fitted curve in the direction sought with a large enough effect; inconclusive = small, poorly fitted or top-dose-only effect, or another doubt; inactive = no such curve, though single readings can be large; an effect the other way counts as inactive or inconclusive;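 note: plate controls were enzyme without inhibitor for no effect and buffer without enzyme for full effect; nearly all actives have a fitted effect of over 40% in size; top concentration of the series not given in the record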
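Detergent-free condition (0.00005% Triton X-100) in acetate buffer pH 5.5 with DTT. 1.5 nM enzyme and compound were pre-mixed 15 min, then 2 uM Z-FR-AMC substrate added; reaction progress from fluorescence change between first and third reads (60 s).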
An asterisk follows results filed as active; ? = inconclusive; · = not tested or not shown; [ ] = another dose, or the depositor's remark. Unless noted, calls come from the whole dose curve; as a rule, active means well fitted rising curve with a large enough effect; inconclusive means small, poorly fitted or top-dose-only effect; inactive means no such curve, though single readings can be large or run the other way. Potency is the fitted concentration of half-maximal effect.

SMILES	Cruzain inh Det	RE007 growth inh	LASV entry inh	NS1 inh	SARS PLP yeast	2A StopGo	MARV entry inh	Cruzain inh noDet
CC(=O)Nc1ccc(S(=O)(=O)NC2(C(F)(F)F)NC(=O)N(Cc3ccccc3)C2=O)cc1 (stereo not drawn)	·	2.8%	-16.5%	1.4%	-7.0%	-2.6%	34.0%	·
COc1ccc(C(=O)c2coc3ccc(O)c(CN4CCCCC4)c23)cc1	-5.9%	-5.4%	·	-16.1%	28.2%	-15.9%	·	-9.9%
O=[N+]([O-])C1C(c2ccccc2)=NOC1c1ccccc1O (stereo not drawn)	·	-7.6%	·	-107.8%	-12.3%	62.7%[activator]	·	·
CCCc1cc(C(=O)Nc2ccc(Cl)cn2)cs1	·	?	?	-16.9%	-5.3%	?	?	·
O=C(Cc1ccc(-n2c(=O)c3ccccc3n(Cc3cccc([N+](=O)[O-])c3)c2=O)cc1)NCC1CCCO1 (stereo not drawn)	0.9%	·	·	12.0%	21.8%	·	6.2%	?
CCCC(=O)Nc1nc(CC(=O)OCC)cs1	·	2.2%	7.1%	·	-7.3%	9.3%	21.1%[46.1 µM]	·
Cc1ccc(-c2c(C)n([O-])c3c([n+]2=O)CCCCC3)cc1	-4.3%	-8.8%	-1.4%	0.6%	15.6%	-1.3%	?	-12.2%
Cc1ccc(CNC(=O)c2nnc(Cc3cccc(F)c3)o2)cc1	-4.6%	·	8.0%[46.1 µM]	·	·	-1.7%	·	-0.2%
S=c1[nH]ncn1/N=C/c1ccc(N2CCOCC2)cc1	-7.6%	-4.7%	-26.0%	4.8%	12.7%	-13.6%	-10.6%	-4.8%
Cc1ccc(OC(C)C(=O)Nc2ccc(F)cc2)c([N+](=O)[O-])n1 (stereo not drawn)	·	-7.8%	1.8%	·	4.3%	-16.8%	1.7%	·
COc1ccc(CCNC(=O)Cn2nc(C)n3nc(-c4ccccc4)cc3c2=O)cc1OC	·	-0.4%	-0.3%[46.1 µM]	5.7%	-0.1%	-5.0%	-20.0%[46.1 µM]	·
CCc1cc(=O)oc2cc(C)cc(OCC(=O)NCC(O)c3ccccc3)c12 (stereo not drawn)	·	1.7%	·	-5.2%	0.2%	-13.7%	·	·
CC(C)CCNC(=O)c1cc(-c2cccs2)nc2ccccc12	·	-4.4%	·	-4.3%	-1.0%	-24.6%	·	·
COc1ccc(OC)c(NC(=O)CS(=O)(=O)Cc2nc(-c3ccccc3C)oc2C)c1	-6.2%	-2.0%	·	-101.5%	-0.5%	-22.2%	-5.4%	3.6%
Cc1ccc(S(=O)(=O)N=C2SCCCS2)cc1	4.2%	39.3%	-2.8%	-4.8%	2.2%	6.3%	10.3%	9.3%
CCOC(=O)N1CCN(C(=O)c2ccccc2NC(=O)c2ccc(C(C)(C)C)cc2)CC1	-0.8%	-11.4%	1.9%	-8.9%	-5.7%	-4.6%	-6.4%	?
CC1CCN(C(=O)CSc2nc3c(cnn3-c3ccc(Cl)cc3)c(=O)[nH]2)CC1	-1.0%	-10.7%	12.5%	3.5%	-14.2%	-17.9%	-7.6%	?
COc1ccc(C2C(C#N)=C(/N=C/N3CCN(C)CC3)OC3=C2C(=O)CC(C)(C)C3)cc1OC (stereo not drawn)	-1.6%	-5.6%	26.4%	-6.5%	0.6%	7.3%	15.2%	-9.0%
C=CCOc1ccc(/C=N/NC(=O)C(=O)Nc2ccccn2)cc1OC	-5.3%	-9.6%	-21.4%	11.6%	-3.3%	7.1%	-1.0%	4.4%
O=C(Cc1ccccc1)Nc1ccccc1C(=O)N1CCCCCC1	·	5.1%	·	-0.9%	0.4%	28.2%	·	·
CCC(CC)c1nc(C#N)c(NCc2ccccc2)o1	-7.6%	2.7%	?	-8.9%	0.3%	-24.5%	-18.7%	-14.1%
CC(C)CNC(=O)c1c(N)n(/N=C/c2cccnc2)c2nc3ccccc3nc12	-0.8%	·	·	-8.2%	0.0%	·	·	20.9%
OCCC1CN(Cc2cccn2-c2ccccn2)CCN1C1CCCCC1 (stereo not drawn)	·	-21.4%	-0.5%	-5.1%	0.1%	3.9%	-2.8%[46.1 µM]	·
Cc1nnc(SCC(=O)c2ccccc2)n1Cc1ccccc1	-1.4%	3.9%	9.7%	7.2%	-20.7%	3.1%	20.4%	1.3%
CC(=O)Nc1ccc(-c2nnc(SCc3ccccc3C#N)n2C)cc1	5.3%	5.9%[3.69 µM]	9.1%	10.4%	12.8%	-6.3%	7.0%	-5.4%
SMILES	Cruzain inh Det	RE007 growth inh	LASV entry inh	NS1 inh	SARS PLP yeast	2A StopGo	MARV entry inh	Cruzain inh noDet
CC1CCCC(NC(=O)c2ccc3c(c2)N(Cc2ccccc2)C(=O)CS3=O)C1C (stereo not drawn)	-2.3%	-12.3%	·	24.3%	-9.3%	0.0%	6.5%	?
COc1ccc(N2CCc3c(C)nc4c(OC)cccc4c32)cc1	·	2.0%	?	·	3.3%	16.4%	?	·
C/C(=N\NC(=O)CN1CCN(S(=O)(=O)c2ccc(C)cc2)CC1)c1cccnc1	-1.7%	5.2%	10.8%	-4.6%	3.16µM*	0.0%	4.6%	4.1%
Cc1ccc(N(CC(=O)N2CCN(c3cccc(Cl)c3)CC2)S(=O)(=O)c2c(C)noc2C)cc1	-5.0%	·	?	·	·	-14.4%	?	-14.8%
COc1cccc(N2CC(C(=O)Nc3nnc(SCC(=O)N4CCCC4)s3)CC2=O)c1 (stereo not drawn)	·	3.3%	-5.3%	3.5%	-2.9%	-3.9%	?	·
COc1cccc(CNC(=O)CCNC(=O)C2CCN(S(=O)(=O)c3ccc(F)cc3)CC2)c1	·	6.9%	·	-2.5%	1.1%	-5.0%	·	·
COC(=O)c1nn(-c2cccc(Cl)c2)ccc1=O	·	12.4%	2.4%[46.1 µM]	-1.5%	5.2%	13.6%	-13.2%[46.1 µM]	·
Cc1ccc(Oc2nc(-c3ccccc3)ncc2S(=O)(=O)c2ccc(C)cc2)cc1	-1.1%	0.5%	?	5.5%	1.1%	0.0%	13.4%	?
COC(=O)C(NC(=O)c1ccc(F)cc1)(Nc1nc(C)cs1)C(F)(F)F (stereo not drawn)	0.6%	21.5%	-13.5%	3.1%	?	-23.7%	-14.1%	1.4%
CCOc1ccc(-c2cc(C(=O)NC(C)c3ccccc3)c3ccccc3n2)cc1 (stereo not drawn)	0.0%	·	-2.0%[46.1 µM]	·	·	17.6%	·	-9.9%
O=C(Nc1sc2c(c1C(=O)NCC1CCCO1)CCCC2)c1cc(=O)c2ccccc2o1 (stereo not drawn)	-1.4%	·	-9.9%[46.1 µM]	·	·	5.8%	?	-17.1%
COc1ccc([N+](=O)[O-])cc1N(CC(O)CN1C(=O)NC(C)(C)C1=O)S(=O)(=O)c1ccccc1 (stereo not drawn)	·	-8.4%	5.7%[46.1 µM]	-5.4%	-3.4%	-8.8%	-0.7%[46.1 µM]	·
Cn1cc(C(=O)N2CCc3ccccc3C2)c(=O)c2cc(S(=O)(=O)N3CCCCC3)ccc21	-6.9%	·	-1.0%	5.5%	-11.2%	·	-29.0%	11.2%
CCOc1ccc(-c2nnn(CC(=O)Nc3cc(OC)ccc3OC)n2)cc1OCC	0.3%	-10.0%	-3.8%	10.5%	0.6%	-10.6%	3.0%	-1.3%
COc1cc(-c2c(C#N)c(N)nc3c2CCCC3)cc(OC)c1OC	-4.2%	-17.8%	2.4%	-16.1%	2.3%	-24.3%	-1.4%	-3.8%
CCC(=O)n1nc(-c2ccc(OC)cc2)nc1N	3.8%	-21.2%	1.6%	-4.8%	1.1%	8.7%	14.6%	-0.4%
COc1ccccc1C=C1C(=O)NC(=S)NC1=O	·	1.6%	14.8%	·	·	?	13.2%	·
Cc1cccc(/N=C/C2=C(O)CC(C)(C)CC2=O)n1	·	4.5%	25.1%	3.2%	0.1%	-10.6%	-12.4%	·
CC1(C2CC2)NC(=O)N(CC(=O)NCC(=O)Nc2ccc(F)c(F)c2F)C1=O (stereo not drawn)	·	0.4%	15.8%[46.1 µM]	·	0.4%	-8.8%	7.0%[46.1 µM]	·
COc1cc2c(cc1OC)C1(CCCC1)CNC2c1cccc([N+](=O)[O-])c1 (stereo not drawn)	·	-0.7%	0.2%	-0.7%	2.3%	-14.4%	-7.6%[46.1 µM]	·
O=C(NCCC(=O)N1CCCCC1)c1ccc(Br)cc1	·	10.3%	24.0%[46.1 µM]	0.3%	·	27.9%	?	·
O=C(COc1cc(Cl)ccc1Cl)Nc1nnc(C2CC2)s1	·	1.4%	-5.8%	-2.4%	0.8%	-20.0%	-1.7%	·
CCN(CC)C(=O)Cn1cnc2sc(C(=O)N3CCN(c4ccc(OC)cc4)CC3)c(C)c2c1=O	0.2%	3.1%	12.8%	-2.3%	12.4%	1.7%	?	29.8%

Whole records from above. Values in the order: Cruzain inh Det, RE007 growth inh, LASV entry inh, NS1 inh, SARS PLP yeast, 2A StopGo, MARV entry inh, Cruzain inh noDet
Results for COc1ccc(C2C(C#N)=C(/N=C/N3CCN(C)CC3)OC3=C2C(=O)CC(C)(C)C3)cc1OC (stereo not drawn) = -1.6%, -5.6%, 26.4%, -6.5%, 0.6%, 7.3%, 15.2%, -9.0%
Results for CC(C)CCNC(=O)c1cc(-c2cccs2)nc2ccccc12 = ·, -4.4%, ·, -4.3%, -1.0%, -24.6%, ·, ·
Results for C=CCOc1ccc(/C=N/NC(=O)C(=O)Nc2ccccn2)cc1OC = -5.3%, -9.6%, -21.4%, 11.6%, -3.3%, 7.1%, -1.0%, 4.4%
Results for Cc1nnc(SCC(=O)c2ccccc2)n1Cc1ccccc1 = -1.4%, 3.9%, 9.7%, 7.2%, -20.7%, 3.1%, 20.4%, 1.3%
Results for S=c1[nH]ncn1/N=C/c1ccc(N2CCOCC2)cc1 = -7.6%, -4.7%, -26.0%, 4.8%, 12.7%, -13.6%, -10.6%, -4.8%
